Screening results from PubChem.
PABP polyA inh – blocks human PABP binding to poly(A) RNA | P11940 | fluorescence polarization | inhibition, % at 35 µM | hit rate 1% among 290,000;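 active means 50% or more with normal probe brightness, or confirmed in later tests; inconclusive means above 50% with abnormal brightness, or retests that disagree; inactive means below 50% or failed in later tests; about a fifth of its hits are not listed in these tables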;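 further: calls also rest on retests at 20 µM and on dose response follow-up; controls were probe without protein and protein plus probe with vehicle; some compounds called inactive have numbers as strong as hits; many hits fall short of the cut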
UUG fidelity – modulators of start codon recognition fidelity in yeast. activity score, % at 18.7 µM. hit rate 0.13% among 350,000. S. cerevisiae UUG-firefly luciferase reporter, luminescence/redox ratio;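 active means replicate mean at a twofold rise or more, about +100% in these data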;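 further: firefly luciferase made from a UUG start codon reports start codon fidelity; reporter light over untreated wells divided by growth signal over untreated wells; some hits fall short of that in this replicate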
eIF4H inh – inhibitors of RNA binding by human eIF4H. eIF4H fluorescence polarization binding assay. hit rate 0.94% among 290,000. Q15056. inhibition, % at 35 µM;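 active means 50% or more with normal probe brightness, or confirmed in later tests; inconclusive means above 50% with abnormal brightness, or retests that disagree; inactive means below 50% or failed in later tests; about a fifth of its hits are not listed in these tables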;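 further: calls also rest on retests at 20 µM and on dose response follow-up; 0% = protein and probe with vehicle and 100% = probe without protein; strong numbers were not always called active; many hits fall short of the cut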
MT1-MMP act inh – MT1-MMP (human) activation inhibition. HT1080 RFP-PRO-GFP cells, GFP/RFP ratio fluorescence, overnight; percent of plate control window, DMSO zero. GFP/RFP ratio change, % at 20 µM. hit rate 0.061% among 360,000. AID 651647;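 active means GFP/RFP ratio change of at least 30% with cell ATP level not reduced by more than half and red fluorescence within 50% of control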; further: strong numbers were not always called active
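Test system: HT1080 cells expressing an RFP-PRO-GFP fluorescent reporter construct / Compound dosing: single-point 20 µM compound, 1% DMSO / Schedule: cells overnight before dosing, compound overnight, 37 °C, 5% CO2 / Evaluation: GFP/RFP fluorescence ratio / Control set: DMSO and RFP-L50D-GFP cell wells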
Env fusion inh – inhibitors of HIV Env-mediated cell fusion; HeLa-JRFL Env/CEM21 cell fusion, luciferase; AID 651610; hit rate 1.1% among 360,000; inhibition, % at 12.3 µM;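 active means mean replicate inhibition score of at least 50 and every replicate individually at or above 50; inconclusive means only one of the two criteria met; inactive means mean below 50 and not all replicates reaching 50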;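 further: 0% = plate neutral controls and 100% = maraviroc near 300 nM; one replicate is shown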
CSC inhib – cancer stem cell inhibition. AID 2717. cancer stem cell-like cells viability, luminescence. inhibition, % at 7.5 µM. hit rate 1.1% among 300,000;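 active means mean at 75% or more and at least half the replicates too; inconclusive means mean and replicates disagree; tested in HMLE shEcad cells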;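 further: 0% = median of negative and 100% = median of positive control wells; the first replicate is given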
Rce1 inhib – inhibitors of yeast Ras-converting enzyme | calls only | yeast membranes, quenched prenylated peptide cleavage fluorescence | Q03530 | hit rate 0.27% among 290,000 | AID 2563;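 active means fall in fluorescence gain of 50% or more versus controls, with final raw signal at or below 3038400; inconclusive means same 50% fall but final raw signal above 3038400; inactive means fall in fluorescence gain under 50%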;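 further: plate controls were neutral control wells for no effect and wells lacking membranes for full effect; tested at 10 µM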
Target sequence (Q03530 whole entry, looked up): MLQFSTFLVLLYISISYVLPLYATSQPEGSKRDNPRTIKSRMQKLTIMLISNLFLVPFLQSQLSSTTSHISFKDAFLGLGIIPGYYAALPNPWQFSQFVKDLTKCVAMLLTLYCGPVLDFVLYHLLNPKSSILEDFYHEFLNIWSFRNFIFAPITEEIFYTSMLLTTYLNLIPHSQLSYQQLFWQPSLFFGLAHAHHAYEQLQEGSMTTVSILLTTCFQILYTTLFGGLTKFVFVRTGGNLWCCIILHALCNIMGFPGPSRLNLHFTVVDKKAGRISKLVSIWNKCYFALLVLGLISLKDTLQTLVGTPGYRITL
MT1-MMP act inh RFP – recorded beside MT1-MMP act inh, whose call it bears; RFP signal change, %; measured here: RFP expression control read;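 0 = vehicle wells; hits needed this value within 50% of zero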
Active calls of the source: *; i = inactive; ? = inconclusive; nt = not tested or not shown. Not all compounds are listed, so the mix of outcomes need not match the whole.

Start of the data: the first 2 compounds, ahead of the listing:
no.	Molecule	PABP polyA inh	UUG fidelity	eIF4H inh	MT1-MMP act inh	MT1-MMP act inh RFP	Env fusion inh	CSC inhib	Rce1 inhib
1	Cc1ccc(C(=O)N/N=C\c2ccc(Br)o2)o1	2	-23	0	5	2	nt	-5	i
2	COc1ccc(NC(=O)c2cc3nc(-c4ccccc4)cc(C)n3n2)cc1OC	3	4	2	0	-8	4	5	i

All compounds of this part, repeating the preview:
no.	Molecule	PABP polyA inh	UUG fidelity	eIF4H inh	MT1-MMP act inh	MT1-MMP act inh RFP	Env fusion inh	CSC inhib	Rce1 inhib
1	Cc1ccc(C(=O)N/N=C\c2ccc(Br)o2)o1	2	-23	0	5	2	nt	-5	i
2	COc1ccc(NC(=O)c2cc3nc(-c4ccccc4)cc(C)n3n2)cc1OC	3	4	2	0	-8	4	5	i
3	c1ccc(C2=NN(c3ccccc3)C(c3ccco3)C2)cc1 (stereo not drawn)	-1	-6	-2	-10	-9	13	48	i
4	Cc1coc2cc3oc(=O)c4c(c3cc12)CCCC4	4	-16	0	2	-2	nt	-18	i
5	CN(C(=O)c1cccc(NC(=O)Cc2ccc(NC(=O)C3CCCN(C(=O)C4CCCCC4)C3)cc2)c1)C1CCC1 (stereo not drawn)	nt	10	nt	0	-5	-2	nt	nt
6	O=C(NCc1ccccc1Cl)c1cc(=O)[nH]c2ccccc12	14	-10	19	1	1	-2	-3	nt
7	CC(C)c1nnc(NC(=O)CCC(=O)N2CCN(c3ccc(F)cc3)CC2)s1	10	nt	-4	2	3	3	-12	i
8	COc1cc(/C=C/C(=O)O)ccc1S(=O)(=O)N1CCCc2ccccc21	-17	-15	8	-1	0	-74	nt	i

Shown in transposed form: entries from further up
#1 Cc1ccc(C(=O)N/N=C\c2ccc(Br)o2)o1
#2 COc1ccc(NC(=O)c2cc3nc(-c4ccccc4)cc(C)n3n2)cc1OC
#3 c1ccc(C2=NN(c3ccccc3)C(c3ccco3)C2)cc1 (stereo not drawn)
#4 Cc1coc2cc3oc(=O)c4c(c3cc12)CCCC4
#5 CN(C(=O)c1cccc(NC(=O)Cc2ccc(NC(=O)C3CCCN(C(=O)C4CCCCC4)C3)cc2)c1)C1CCC1 (stereo not drawn)
assay / compound,1,2,3,4,5
PABP polyA inh,2,3,-1,4,nt
UUG fidelity,-23,4,-6,-16,10
eIF4H inh,0,2,-2,0,nt
MT1-MMP act inh,5,0,-10,2,0
MT1-MMP act inh RFP,2,-8,-9,-2,-5
Env fusion inh,nt,4,13,nt,-2
CSC inhib,-5,5,48,-18,nt
Rce1 inhib,i,i,i,i,nt

More entries
no.	Molecule	PABP polyA inh	UUG fidelity	eIF4H inh	MT1-MMP act inh	MT1-MMP act inh RFP	Env fusion inh	CSC inhib	Rce1 inhib
9	CNc1nc(NCc2ccccc2)c2ccccc2n1	9	0	12	11	-2	21	-16	i
10	COc1ccc(C(=O)N/C(=C\c2cn(C)c3ccccc23)C(=O)N2CCOCC2)cc1	-5	-6	-1	-5	-2	-4	3	i
11	CN(c1ccccc1)c1nc(N)c([N+](=O)[O-])c(NCCO)n1	18	nt	15	-1	-2	0	-4	i
12	CCOC(=O)C1=C(C(=O)OCC)N(CC2CCCCC2)CCC1=O	nt	4	nt	3	5	28	nt	nt
13	CCCCCCNCCn1cnc2c(N)ncnc21	4	-16	3	4	8	-32	-7	i
14	CC(=O)NC(CC(=O)NCCc1ccccc1)c1ccccc1 (stereo not drawn)	-5	-12	-7	2	3	-1	-4	i
15	FC(F)(F)c1cccc(Nc2ncnc3ccccc23)c1	5	-2	8	0	-9	-27	?	i
16	CCC1(CC)NC(=O)N(CC(=O)OCn2nnc3ccccc3c2=O)C1=O	-7	-10	-7	-4	-6	-8	-30	i
17	CCOc1ccc2nc(NC(=O)CSc3nc4ccccc4c(=O)n3Cc3ccco3)sc2c1	3	-7	-3	-8	-8	-33	15	i
18	COCCNc1oc(-c2ccc(Cl)cc2)nc1C#N	-10	-6	0	2	-4	-84	nt	?
19	O=S(=O)(Nc1ccc(N=Nc2ccc(O)c3ccccc23)cc1)c1ccccc1	6	nt	3	-42	6	-6	79*	i
20	CCOC(=O)c1ccc(S(=O)(=O)N2CCN(C(=O)CSc3nc4ccccc4o3)CC2)cc1	-12	-29	-12	3	-7	-5	12	i
21	COc1ccccc1CN1C(=O)CNC1=S	8	-8	8	-4	6	nt	-9	i
22	Cc1c(OCC(=O)NCc2cccnc2)ccc2c3c(c(=O)oc12)CCC3	9	-13	0	5	5	-15	8	i
23	CCCCCC(=O)N1CCN(c2ccc(C(C)=O)cc2F)CC1	-18	-9	-10	3	-4	2	9	i
24	Cc1ccccc1NC1=CC(=O)CC(C)(C)C1	6	-6	-3	-3	-1	4	-11	i
25	COc1ccccc1NC(=O)Cn1c(=O)n(C)c(=O)c2sc3c(c21)COC(C)(C)C3	6	14	-6	-1	-2	2	8	i
26	CC1=C(C(N)=O)C(c2cccs2)n2ncnc2N1 (stereo not drawn)	2	-16	-1	10	5	3	13	i
27	O=C(c1ccc2ccccc2c1O)N1CCCCC1	nt	-7	nt	-3	-1	0	nt	nt
28	Cc1ccc(-c2ccc(C(=O)Nc3cccc(F)c3)o2)c2ccccc12	9	1	13	-1	-2	-17	20	i
29	CCN(C[C@H]1N[C@@](C)(C(=O)OC)[C@H]2C(=O)N(C)C(=O)[C@@H]12)S(=O)(=O)c1ccc(C(F)(F)F)cc1	nt	-28	nt	0	5	-254	nt	nt
30	O=C(CCN1C(=O)/C(=C/c2ccccc2Cl)SC1=S)Nc1ccccn1	-3	-7	1	-1	3	-11	-6	i
31	CC(OC(=O)c1ccc(S(=O)(=O)N2CCCCC2)cc1)C(=O)NC1CCCCC1C (stereo not drawn)	-15	-19	-10	-4	-1	-8	1	i
32	CCN(CC)CCCn1c2c(c(SCC(=O)Nc3cccc4ccccc34)nc1=O)CCC2	nt	-11	nt	-3	0	-9	-11	i
33	Cc1onc(-c2ccccc2)c1-c1ccc(S(N)(=O)=O)cc1	10	-16	9	-4	-8	12	-3	i
34	O=S(=O)(Cc1nnnn1-c1ccccc1)c1ccccc1	-1	-15	-13	-2	4	3	-5	i
35	CN(Cc1ccccc1)C(=O)c1ccc(NC(=O)Cc2cccc(NC(=O)C3CCCN(C(=O)C4CCCC4)C3)c2)cc1 (stereo not drawn)	nt	-18	nt	4	-6	-24	-11	nt
36	COc1ccc(/C=C(/NC(=O)c2ccc(C)cc2)C(=O)N2CCCC2)cc1OC	-8	15	1	4	8	16	-9	i
37	CC(C)c1ccc(NC(=O)CCCC(=O)NCCc2ccccc2)cc1	12	-2	0	3	3	-4	-5	i
38	NC(=O)c1nc(C(=O)N2CCCCC2)c2ccccc2n1	nt	-16	nt	1	3	-11	-2	nt
39	COc1cccc(/C=C2/Oc3ccccc3N(CC(=O)NCC3CCCO3)C2=O)c1 (stereo not drawn)	-10	-15	-25	4	0	nt	15	i
40	CC(C)(C)NC(=O)c1ccc2nccnc2c1	4	-13	0	6	0	-23	-4	i
41	O=C(c1cccc(Oc2c(Cl)cccc2[N+](=O)[O-])c1)N1CCCCC1	3	nt	5	-1	-5	-9	-14	i
42	OC[C@@H]1CN(C2CCCC2)C[C@H](n2cnc3c(NC4CC4)ncnc32)O1	nt	-6	nt	0	2	-10	nt	nt
43	Cc1ccc(C)c(NC(=O)COC(=O)CCCN=C2NS(=O)(=O)c3ccccc32)c1	1	nt	-4	0	0	-7	-6	i
44	O=C(NC(=S)Nc1ccc(S(=O)(=O)N2CCCCC2)cc1)c1ccc(Cl)cc1	0	-3	4	4	-3	nt	-2	i
45	COCC(C)n1c(C)cc(C(=O)CN2C(=O)NC(Cc3c[nH]c4ccccc34)C2=O)c1C (stereo not drawn)	-4	19	3	4	0	nt	-9	i
46	COc1ccc(OCCN2C(=O)c3cccc(N)c3C2=O)cc1	13	3	4	1	0	-37	-12	i
47	O=C(O)CCn1c(CO)nc2ccccc21	-5	nt	0	2	7	?	-8	i
48	COc1ccc(C(=O)NC(=S)N2CCN(C)CC2)cc1Br	-14	nt	-9	1	4	4	3	i
49	COc1ccc(OC)c(NC(=O)c2sc3ncnc(N4CCN(c5ccccn5)CC4)c3c2C)c1	8	-9	-3	nt	nt	nt	-4	i
50	COc1ccc(Cl)cc1Nc1nc(-c2sc(NC(=O)c3ccccc3)nc2C)cs1	10	nt	-6	nt	nt	nt	1	i
51	COc1ccc(NC(=O)NNC(=O)CCC(=O)Nc2ccccc2Cl)cc1	-2	nt	-4	0	2	16	2	i
52	C[C@]12c3[nH]c4cc(-c5ccco5)ccc4c3CCN1C(=O)[C@@H](CC(=O)NCCC1=CCCCC1)C[C@@H]2C(=O)N1CCCCC1	nt	-10	nt	-4	-9	-74	nt	nt
53	CC(=O)Nc1ccc(-c2csc(Nc3ccc(S(N)(=O)=O)cc3)n2)cc1	-1	-12	-7	4	4	10	-5	i
54	Cc1cccc(C)c1NC(=O)Nc1nnc([C@H]2C[C@H](O)[C@@H](CO)O2)s1	nt	-41	nt	-5	-3	-4	nt	nt
55	CCOC(=O)c1c(NC(=O)COC(=O)Cc2n[nH]c(=O)c3ccccc23)sc(C(=O)N(C)C)c1C	nt	nt	nt	0	4	-34	-3	i
56	CCCCC1=CC2=CC(=O)C(C)(OC(=O)CC)C(=O)C2=CO1 (stereo not drawn)	nt	-22	nt	-1	22	5	-15	i
57	CCOC(=O)c1ccc2[nH]c3c(c2c1)CCCC3	-1	-1	-6	0	0	-22	0	i
58	COc1cc(/C=N/c2oc(-c3ccccc3)cc2C#N)ccc1O	-4	nt	-9	4	-4	-111	-10	i
59	CCN(CC)c1nc(OCCNC(=O)Nc2ccccc2)nc(N(CC)CC)n1	7	nt	6	-7	-12	nt	34	i
60	Cc1cccc(CSC2=NCCN2S(=O)(=O)c2ccc(F)cc2)c1	-9	-4	-3	-4	-1	-14	1	i
61	NS(=O)(=O)c1ccc(CNc2nc(-c3cccnc3)nc3ccccc23)cc1	2	-14	-21	-4	-2	0	-2	i
62	CCN1C(=O)/C(=C\C=C2/C=CC=CN2CC)SC1=S	-1	nt	5	46	56	-49	1	i
63	CCOC(=O)N1CCN(C(=O)c2ccc(S(=O)(=O)Nc3cccc(C(F)(F)F)c3)cc2)CC1	nt	-8	nt	-10	-25	nt	8	i
64	CCCCN(C1CCS(=O)(=O)C1)S(=O)(=O)c1ccc(OC)cc1 (stereo not drawn)	nt	1	nt	2	-1	2	-5	i
